# From PubChem BioAssay
# HPGD inh: qHTS Assay for Inhibitors of HPGD (15-Hydroxyprostaglandin Dehydrogenase); 15-hydroxyprostaglandin dehydrogenase [NAD(+)] (Homo sapiens), P15428; purified HPGD, NADH fluorescence kinetic, PGE2 substrate; Potency, µM, without a hit: at the top dose activity change, negative = inhibition, actives largely listed as inhibitors; 4.3% of 150,000 active; AID 894, 2007; active = well fitted inhibition curve with a large enough effect (not every such curve was filed as active); inconclusive = small, poorly fitted or top-dose-only effect, or another doubt; inactive = no such curve, though single readings can be large or run the other way;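 further: top concentration of the series not given in the record; plate controls included wells without enzyme; inactives centre near -10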
# Target sequence (P15428 whole entry, looked up): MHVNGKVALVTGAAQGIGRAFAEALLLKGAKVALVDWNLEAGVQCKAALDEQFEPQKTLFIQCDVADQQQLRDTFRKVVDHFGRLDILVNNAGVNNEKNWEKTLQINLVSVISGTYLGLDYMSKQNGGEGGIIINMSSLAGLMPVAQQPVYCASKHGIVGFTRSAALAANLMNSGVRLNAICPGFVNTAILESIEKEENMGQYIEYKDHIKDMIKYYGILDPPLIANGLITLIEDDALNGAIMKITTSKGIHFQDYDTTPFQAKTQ
#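 20 nM HPGD preincubated 15 min at room temperature with compound in 50 mM Tris-HCl pH 8, 0.01% Tween 20. Started with 1 mM NAD+ and 30 uM prostaglandin E2; NADH fluorescence (360/450 nm) read 5 times over 30-s intervals, last minus first.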
# Numbers without * were called inactive; ? = inconclusive. On the % scale 0 is the no-effect control and ±100 the full control effect; potency means the concentration at half of the fitted maximal effect. These rows are one share of the data, so the mix of outcomes need not match the whole.
SMILES,HPGD inh
O=C(CN1C(=O)NC2(CCCCCC2)C1=O)N1CCN(S(=O)(=O)c2ccc(Cl)cc2)CC1,-10%
Cc1ccc(-n2nc(CN3CCOCC3)c(-c3ccccc3)c2N)c(C)c1,-6%
COC/C=C/C1=CC2=CC(=O)C(C)(OC(=O)c3cnc4ccccc4n3)C(=O)C2=CN1Cc1ccc(OC)cc1 (stereo not drawn),-9%
COc1ccc(OC)c(/C=N/NC(=O)Cc2nc3ccccc3[nH]2)c1,?
COc1ccc(OC)c(NC(=O)Cn2cnc3c(cnn3-c3ccccc3)c2=O)c1,-15%
COc1ccccc1C(O)P(=O)(OC(C)C)c1ccc(N(C)C)cc1 (stereo not drawn),-15%
O=C(NCc1ccc2c(c1)OCO2)C1CC(=O)N(C2CCCCCCC2)C1 (stereo not drawn),-6%
COc1ccc(C)cc1NC(=O)COC(=O)c1c(C)noc1C,-3%
Cc1cc(C(=O)Cn2nnc3ccccc3c2=O)c(C)n1-c1ccccc1F,?
CCOC(=O)c1c(NC(=O)c2c(C)noc2C)sc2c1CCCCC2,-27%
CCc1ccccc1NC1c2ccccc2C(=O)N1Cc1ccco1 (stereo not drawn),-1%
CCOCCn1c(SCc2cccc(C)c2)nc2c1c(=O)[nH]c(=O)n2C,-17%
O=[N+]([O-])c1ccc(NC(=S)NCCc2ccc(Cl)cc2)cc1,-5%
Cn1c(=O)cc(SCC(=O)N2CCN(c3ccccc3)CC2)c2ccccc21,-10%
O=C(NCc1ccco1)C1CCN(c2nc3ccccc3n2Cc2ccc(F)cc2)CC1,-10%
O=C(c1ccc(COc2ccccc2Br)o1)N1CCN(c2ccccn2)CC1,-10%
Cc1ccc(S(=O)(=O)N2CC(=O)Nc3ccccc32)cc1C,0%
CCOC(=O)C1=C(C)NC(=O)NC1c1ccc(C)o1 (stereo not drawn),-6%
COCCCNCCCCOc1ccccc1-c1ccccc1,6%
CC(=O)C1=C(C)OC(N)=C(C#N)C1c1cc2cccc(C)c2nc1Cl (stereo not drawn),?
CC1CC1c1ccc(/C=C(\C#N)C(=O)Nc2cc(Cl)ccc2Cl)o1 (stereo not drawn),-23%
O=C(O)CCC(=O)C(=O)O (tested in a mixture with another compound),-5%
O=C(O)C1C2CCC(O2)C1C(=O)Nc1cnn(Cc2ccccc2)c1 (stereo not drawn),-5%
O=C1N/C(=C/c2cccn2-c2ccccc2)C(=O)N1Cc1ccc(F)cc1,-3%
COc1ccc(C(=O)Nc2cc(=O)n(C)c(=O)n2C)cc1OC,-17%
N#Cc1c(N)n(CCOC(=O)c2cccc(Br)c2)c2nc3ccccc3nc12,?
CC(C)Oc1ccc(CNCC2(O)CCOC(C)(C)C2)cc1 (stereo not drawn),-9%
Cc1cc(NC(=O)c2nn(C)c(C)c2[N+](=O)[O-])no1,1%
O=C(Cn1nnc(-c2ccccc2NC(=O)c2ccco2)n1)Nc1ccccc1,?
COc1ccc(NC(=O)c2ccc(C)o2)c([N+](=O)[O-])c1,-8%
Cc1ccc(NC(=O)c2ccccc2-c2ccc(C(F)(F)F)cc2)cc1S(=O)(=O)N1CCOCC1,-16%
CC1=C(n2nnc([N+](=O)[O-])n2)C(c2cccnc2)C(C#N)=C(N)O1 (stereo not drawn),-8%
O=C(NC1CCCCCC1)C1CCN(c2nc3ccccc3o2)CC1,-8%
CCOC(=O)CC1C(=O)NCCN1S(=O)(=O)c1ccc(Cl)cc1Cl (stereo not drawn),-10%
CC(C)(C)NC(=O)NC(=O)CN1CCN(c2ncc(C(F)(F)F)cc2Cl)CC1,-21%
CCC(C)NC(=O)CCSCCC(=O)NC(C)CC (stereo not drawn),-15%
O=C(Nc1ccccn1)NC(C(F)(F)F)C(F)(F)F,-10%
CC1(C(=O)NC(=S)N(Cc2ccccc2)c2ccccn2)CC1(Cl)Cl (stereo not drawn),?
COc1ccc(CCNC(=O)C2CCN(S(=O)(=O)c3cccc4nonc34)CC2)cc1OC,-9%
CCc1nc(Nc2ccc3nccnc3c2)c2oc3ccccc3c2n1,?
O=[N+]([O-])c1ccc2c(c1)C=C1CCCCC1(N1CCCC1)O2 (stereo not drawn),-14%
CSc1nnc2c(n1)c(C)nn2-c1cccc(C)c1,-14%
CCN=C1S/C(=C\c2cn(CC)c3ccccc23)C(=O)N1CC,-23%
Cc1ccc(Cn2ccc(NC(=O)C3C4CCC(C4)C3C(=O)O)n2)cc1 (stereo not drawn),-7%
CC(OC(=O)C(C)N1C(=O)C2C3C=CC(C4CC34)C2C1=O)C(=O)c1ccccc1 (stereo not drawn),-8%
CCNC(=S)N(CCc1cccc(C)c1)Cc1cc2cc(OC)c(OC)cc2[nH]c1=O,?
Cc1cnc(CNc2ncncc2-c2ccccc2CN(C)C)cn1,-14%
Cc1nc(N)sc1-c1csc(Nc2ccc(Cl)cn2)n1,-19%
COc1ccc(S(=O)(=O)NNC(=O)c2cc3ccccc3o2)cc1,-20%
Cc1cc(=O)c2c(o1)CC(C)(C)CC2=O,-6%
COc1ccc2ncn(-c3ccccc3)c2c1,?
O=C1CSC(c2ccccc2F)N1CCN1CCCCC1 (stereo not drawn),-17%
CCOc1ccc(NC(=S)N2CCC(C(N)=O)CC2)cc1,-12%
COc1ccc(NCc2ccc([N+](=O)[O-])s2)c(OC)c1,-14%
CCN1C(=O)/C(=C\c2cccn2-c2ccc([N+](=O)[O-])cc2)N(CC)C1=S,-2%
COc1cccc(C(C(=O)NCc2ccco2)N(C(=O)Cn2nnc3ccccc32)C2CC2)c1OC (stereo not drawn),-8%
COc1ccc(OC)c2c(N3CCN(C)CC3)cc(C(F)(F)F)nc12,?
Cc1ccc(S(=O)(=O)Oc2cc(S(=O)(=O)O)cc3cc(S(=O)(=O)O)cc(N)c23)cc1,-11%
N#CCSc1nc(-c2ccccc2)cs1,-20%
C(=N\N(c1ccccc1)c1ccccc1)/c1ccc2c(c1)OCO2,-21%

# Some of the entries so far, with the structure last.
HPGD inh	Compound
-14%	O=[N+]([O-])c1ccc2c(c1)C=C1CCCCC1(N1CCCC1)O2 (stereo not drawn)
-14%	CSc1nnc2c(n1)c(C)nn2-c1cccc(C)c1

# Rewritten with bars between the fields: six of the compounds above.
SMILES | HPGD inh
CCOCCn1c(SCc2cccc(C)c2)nc2c1c(=O)[nH]c(=O)n2C | -17%
COc1ccc(NC(=O)c2ccc(C)o2)c([N+](=O)[O-])c1 | -8%
COc1cccc(C(C(=O)NCc2ccco2)N(C(=O)Cn2nnc3ccccc32)C2CC2)c1OC (stereo not drawn) | -8%
CCOC(=O)CC1C(=O)NCCN1S(=O)(=O)c1ccc(Cl)cc1Cl (stereo not drawn) | -10%
COc1ccccc1C(O)P(=O)(OC(C)C)c1ccc(N(C)C)cc1 (stereo not drawn) | -15%
CC1CC1c1ccc(/C=C(\C#N)C(=O)Nc2cc(Cl)ccc2Cl)o1 (stereo not drawn) | -23%

# Next part
SMILES,HPGD inh
Cc1cccc(C(=O)Nc2scc(CC(C)C)c2C(=O)O)c1,16µM*
Cc1cccc2cc3ccc4ccccc4c3cc12,?
Cc1nn(CC(=O)NCc2ccccc2Cl)c(C)c1[N+](=O)[O-],0%
CCc1ccc(N=C2N=C(N)c3ccccc32)cc1,-8%
Cc1noc(C)c1C(=O)NCCCN1CCCC1=O,-10%
CCN(Cc1cc2cc(OC)ccc2[nH]c1=O)C(=O)c1ccncc1,-15%
CC(=O)N1CCC(N(CCN2CCOCC2)C(=S)Nc2ccccc2C)CC1,-3%
COc1ccccc1N1CCN(CCCNC(=O)Nc2ccccc2C)CC1,1%
COCCSc1ccccc1C(=O)Nc1cccnc1,?
O=C(NCc1ccncc1)C(F)(F)C(F)(F)C(=O)NCc1ccncc1,-5%
COc1ccc(-n2c(O)c(/C=N/NS(=O)(=O)c3ccc(C)cc3)c3ccccc3c2=O)cc1OC,-16%
CCc1nnc(NC(=O)C2CCCN(c3nc4ccccc4s3)C2)s1 (stereo not drawn),-11%
CCC(=O)Nc1cccc(NC(=O)c2ccccc2Br)c1,-20%
Cc1cc(C)cc(NC(=O)Cn2c(SCc3cc(C)ccc3C)nc3ccncc32)c1,-18%
O=C(c1cccc(F)c1)N1CCCC(C(=O)N2CCCC2)C1 (stereo not drawn),-16%
O=C(N/N=C\c1ccc([N+](=O)[O-])s1)c1cncc(Br)c1,-4%
COc1ccc(C(=O)Nn2c(SCC(=O)NCc3ccco3)nc3ccccc3c2=O)cc1,-20%
Cc1ccc(CN2CCN(/N=C/c3ccc(C)s3)CC2)c(C)c1,-10%
O=C(c1ccc2c(c1)OCO2)N1CCN(C(=O)c2ccco2)CC1,-12%
O=C(Nc1cccc(Cl)c1)N(Cc1nc2ccccc2c(=O)[nH]1)C1CCCC1,-16%
COc1ccc(-c2nn(-c3ccccc3)cc2C(=O)O)cc1,-19%
COc1ccc(S(=O)(=O)N2CCN(CCC(=O)Nc3ccccc3F)CC2)cc1,-11%
O=C(NCS(=O)(=O)c1ccccc1)c1ccccc1,-14%
O=C(CSc1nnc(CCCN2C(=O)c3cccc4cccc(c34)C2=O)n1-c1ccccc1)NCCCN1CCOCC1,?
CC(CCc1ccccc1)NC(=O)c1nnc(Cc2ccc(Cl)cc2)o1 (stereo not drawn),-7%
O=C(CN1C(=O)NC2(CCCCC2)C1=O)NC1CCCc2ccccc21 (stereo not drawn),-7%
O=C(O)c1cccnc1SCC(=O)N1CCCCCC1,0%
CC(=O)C1C(=O)C=C(c2ccco2)CC1c1ccccc1 (stereo not drawn),-26%
CC[C@H](C)[C@@H](NC(=O)O[C@@H]1C(=O)c2cc(OC)ccc2O[C@H]1c1ccc(OC)c(Br)c1)C(=O)OC,?
Cn1c(=O)c(-c2cc(F)cc(F)c2)nc2cnc(Oc3ccccc3)nc21,?
CCOC(=O)c1c(N)n(CC(C)NC(=O)C2CC2)c2nc3ccccc3nc12 (stereo not drawn),?
COc1ccc(C(=O)O/N=C/c2ccc(S(=O)c3ccc(Cl)cc3)nc2)cc1 (stereo not drawn),-18%
CCCn1c(/N=C/c2c[nH]c3ccccc23)nc2ccccc21,-8%
C=CCC(C(=O)OC)(C(=O)OC)c1ccc([N+](=O)[O-])cn1,-3%
Cc1cccc(-c2cc3c(nn2)-c2ccccc2C3=O)c1,-13%
CCSc1nc(N)c2c3c(sc2n1)CCC3,-14%
O=C(/C=C/c1ccc(Cl)cc1)c1cccnc1,-13%
Cc1ccc(NC(=S)N2CCN(Cc3ccccc3)CC2)c(C)c1,-11%
COc1ccc2cc1Oc1ccc(cc1)C[C@@H]1c3c(cc(OC)c4c3Oc3cc5c(cc3O4)CCN[C@H]5C2)CCN1C,-1%
CN(C)c1nc(OCCOC(=O)c2ccccc2)nc(N(C)C)n1,-16%

# 7 compounds already listed, ordered by molar mass, descending:
SMILES,HPGD inh
COc1ccc(-n2c(O)c(/C=N/NS(=O)(=O)c3ccc(C)cc3)c3ccccc3c2=O)cc1OC,-16%
Cc1ccc(S(=O)(=O)Oc2cc(S(=O)(=O)O)cc3cc(S(=O)(=O)O)cc(N)c23)cc1,-11%
Cc1ccc(NC(=S)N2CCN(Cc3ccccc3)CC2)c(C)c1,-11%
O=[N+]([O-])c1ccc(NC(=S)NCCc2ccc(Cl)cc2)cc1,-5%
O=C(c1cccc(F)c1)N1CCCC(C(=O)N2CCCC2)C1 (stereo not drawn),-16%
CC(=O)C1C(=O)C=C(c2ccco2)CC1c1ccccc1 (stereo not drawn),-26%
CSc1nnc2c(n1)c(C)nn2-c1cccc(C)c1,-14%

# (list continues)
SMILES,HPGD inh
COC(=O)c1ccc(N=NN2CCOCC2)cc1,-2%
CC(C)n1cc(C(=O)c2cc(Br)ccc2O)cc(C#N)c1=O,-14%
CC(Nc1ncnc2nc[nH]c12)c1ccccc1 (stereo not drawn),-4%
O=C(CSC1=NS(=O)(=O)c2ccccc21)Nc1ccccc1,16µM*
Cc1ccc(C2c3c(-c4ccccc4O)n[nH]c3C(=O)N2Cc2ccncc2)cc1 (stereo not drawn),-10%
CCn1c(SCC(=O)NCc2ccco2)nc2cccnc21,?
O=C(CCN1C(=O)/C(=C/c2ccc(F)cc2)SC1=S)NNC(=O)c1cccnc1,-3%
O=C(c1cccc(F)c1)N1CCc2ccccc2C1,5µM*
Cc1cc(=O)oc2cc(OCC(=O)NCc3ccco3)ccc12,?
CCOC(=O)CSc1nc2sc3c(c2c(=O)n1C1CCCCC1)CCN(C)C3,-29%
C=CCNC(=O)c1cnc2n(c1=O)CCS2,-29%
COc1cc(OC)c(-c2cc(C(=O)O)ccc2OC)c(OC)c1,-10%
CCOc1ccc(CNC(=O)c2cc3oc4ccccc4c3n2C)cc1,?
CC1CCC/C(=N\Nc2ccc(Cl)c(C(=O)O)c2)C1 (stereo not drawn),-21%
CCOC(=O)c1sc(N)nc1C(C)(C)C,?
O=c1[nH]c2c(s1)C(c1ccccc1)C1C3CCC(C3)C1S2 (stereo not drawn),?
CCN(CCCNC(=O)C1CCC(=O)N1Cc1ccc(C)cc1)c1cccc(C)c1 (stereo not drawn),0%
Cc1nc(NCCc2ccccc2)c2oc3ccccc3c2n1,-28%
COC(=O)c1ccccc1NC(=O)CN(C)S(=O)(=O)c1ccc(OC)cc1,-15%
O=C(Nn1c(SCc2ccc(F)cc2)nc2ccsc2c1=O)c1ccccc1,-23%
COCCNC(=O)/C=C/c1c(Cl)cccc1Cl,13µM*
CCCC(=O)Nc1cccc2c1CCCC2,-15%
CCOC(=O)c1sc(NC(=O)c2ccc(S(=O)(=O)N3CCOCC3)cc2)nc1-c1ccccc1,?
